HPGD block: blocks human HPGD enzyme activity; purified HPGD, NADH fluorescence kinetic, PGE2 substrate; AID 894; 4.3% of 150,000 active; Potency, µM, for inactives: top-dose activity change, negative = inhibition, actives largely listed as inhibitors; active = well fitted inhibition curve with a large enough effect (not every such curve was filed as active); inconclusive = small, poorly fitted or top-dose-only effect, or another doubt; inactive = no such curve, though single readings can be large or run the other way;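 note: top concentration of the series not given in the record; plate controls included wells without enzyme; inactives centre near -10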
Target sequence (P15428 whole entry, looked up): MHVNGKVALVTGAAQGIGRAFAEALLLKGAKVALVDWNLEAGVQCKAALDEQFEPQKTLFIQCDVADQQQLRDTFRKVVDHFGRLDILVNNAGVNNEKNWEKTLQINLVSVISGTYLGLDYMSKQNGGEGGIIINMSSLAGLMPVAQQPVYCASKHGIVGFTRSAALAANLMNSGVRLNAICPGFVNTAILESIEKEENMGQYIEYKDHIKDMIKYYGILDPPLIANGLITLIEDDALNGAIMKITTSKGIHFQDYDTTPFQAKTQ
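NADH formation kinetics: reaction with 30 uM PGE2 and 1 mM NAD+ (final), 20 nM enzyme, Tris-HCl pH 8 with Tween 20, after 15 min compound preincubation at room temperature. Fluorescence change, last versus first of five reads.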
* hit, by the source's call; ? = inconclusive; & = joins results of further samples. % is set by controls: 0 for no effect and ±100 for the full control effect; potency is the fitted concentration of half-maximal effect.

SMILES | HPGD block
Cc1cc(C(=O)N/N=C/c2cc(Cl)cc([N+](=O)[O-])c2O)c2ccccc2n1 | -22.5%
Cc1ccc(-n2ncc3c(N4CCCC4)ncnc32)c(C)c1 | -17.0%
CCSc1nnc(NC(=O)C(CC)Oc2ccccc2)s1 (stereo not given) | -13.7%
COc1ccc(-n2c(SC3CCOC3=O)nc3ccccc32)cc1 (stereo not given) | 0.2%
COC(=O)c1ccccc1NC(=O)CN(Cc1ccc(Cl)cc1)S(C)(=O)=O | -7.2%
COc1ccc(N2CCN(C(=O)CC3NC4CCCCC4NC3=O)CC2)cc1 (stereo not given) | -7.3%
O=C(Nc1cccn2ncnc12)c1ccc(Cl)cc1Cl | ?
O=C(CSc1nc2ccccc2s1)Nc1ccc(Cl)c(S(=O)(=O)N2CCOCC2)c1 | -10.8%
COc1ccc(-c2nnc(SCCC(=O)O)n2-c2ccccc2)cc1 | 31.6µM*
COc1ccc(-c2noc(-c3ccccc3-c3ccccc3)n2)cc1OC | -16.9%
CCC(c1nnnn1CCOC)N1CCN(C(=O)c2ccco2)CC1 (stereo not given) | -5.2%
Cc1ccc(Cn2c(/C=C/c3ccco3)nc3ccccc32)cc1 | ?
COC(=O)C1=C(C)N=C2SCCC(=O)N2C1/C=C/c1ccccc1 (stereo not given) | -21.5%
C=CCN(CC=C)C(=O)Cn1cnc([N+](=O)[O-])n1 | 2.4%
CC(C)(C)c1ccc(/C=C/C(=O)Nc2ccc3c(c2)OCCO3)cc1 | -15.0%
COc1ccc(CCNC(=O)CN(C)S(=O)(=O)c2cccc3nsnc23)cc1OC | -6.4%
Cc1ccc(NC(=S)C2=C(O)c3sccc3N(C)S2(=O)=O)cc1 | ?
Cc1ccc(S(=O)(=O)n2ccc3cccnc32)cc1 | -7.7%
CCOCCCn1c(=S)[nH]c2cc3c(cc2c1=O)OCO3 | -12.1%
CCC(=O)Nc1sc2c(c1C#N)CC(C)(C)NC2(C)C | -4.3%
COCCn1c(SCCN2CCCCC2)nc2ccccc2c1=O | -3.9%
CCc1nccn1S(=O)(=O)c1ccc(Br)cc1Br | -4.3%
Cn1cc(C(=O)NCc2ccccc2F)cn1 | ?
CCCn1c(-c2ccc(F)cc2)nc2c(NCCN3CCOCC3)nc(C)nc21 | -15.7%
CCOC(=O)c1cc2c(nc1N)CC(C)(CC)OC2 (stereo not given) | ?

Structures listed above printed as active in HPGD block:
SMILES | HPGD block
COc1ccc(-c2nnc(SCCC(=O)O)n2-c2ccccc2)cc1 | 31.6µM*

By substructure, the compounds so far containing fluorine.
SMILES | HPGD block
Cn1cc(C(=O)NCc2ccccc2F)cn1 | ?
CCCn1c(-c2ccc(F)cc2)nc2c(NCCN3CCOCC3)nc(C)nc21 | -15.7%

(more compounds)
SMILES | HPGD block
Cc1ccc2[nH]c(C(=O)O)c(NC(=O)CN3CCN(c4cccc(C)c4C)CC3)c2c1 | -9.2%
O=C1CCCN1CCCNS(=O)(=O)c1ccc(Cl)c(C(=O)N2CCOCC2)c1 | 4.0%
Cc1nc2c(-c3ccc(F)cc3)c(C)nn2c(C)c1CCC(=O)N1CCN(c2ccc(F)cc2)CC1 | -11.4%
CCc1ccc(N(CC(=O)O)S(=O)(=O)c2c(C)noc2C)cc1 | -6.0%
OCc1cc(C(O)CNCCCCCCOCCCCc2ccccc2)ccc1O (stereo not given) | ?
Cn1c([N+](=O)[O-])cnc1COC(N)=O | -7.6%&-15.4%&-3.3%
COc1ccc(N(CC(=O)N2CCCCCC2)S(=O)(=O)c2c(C)[nH]c(=O)[nH]c2=O)cc1 | -2.0%
COC(CNC(=O)c1cccc2c1C(=O)N(Cc1cccnc1)C2)OC | -6.0%
Cc1cc(S(=O)(=O)N2CCCCCC2)c(Cl)cc1Cl | -25.9%
CN1CCN(S(=O)(=O)c2ccc(NC(=O)c3cccc(S(=O)(=O)N4CCCC4)c3)cc2)CC1 | -8.5%
CS(=O)(=O)N1CCN(c2cccc(Cl)n2)CC1 | -8.8%
COC(=O)CSc1n[nH]c(-c2cccnc2)n1 | -11.1%
CC1CCc2sc3ncn4nc(C(=O)NCc5ccco5)nc4c3c2C1 (stereo not given) | -19.7%
O=C(CCN1C(=O)C2C3C=CC(C3)C2C1=O)NC1CCCc2ccccc21 (stereo not given) | -5.6%
CC(C)c1cc(C(F)(F)F)nc(NNc2nc(C(C)C)cc(C(F)(F)F)n2)n1 | -4.7%
CC(=O)Nc1ccc2c(c1)CCC2=O | -8.2%
O=C(N/N=C\C=C\c1ccco1)c1cc(-c2ccc3ccccc3c2)n[nH]1 | 31.6µM*
COc1ccc(NC(=O)c2ccc(-c3ccc(-c4noc(C)n4)cc3C)cc2)cc1N1CCN(C)CC1 | ?
CC1CCCN(c2ccc(C(=O)NCc3cccs3)cn2)C1 (stereo not given) | 28.2µM*
CC1(C)CC(=O)C2=C(C1)OC(c1ccncc1)C(C#N)=C2N (stereo not given) | 1.3%
CC(=O)c1cc(C)oc1C | -22.2%
CCOc1ccc(N2C(=O)S/C(=C\c3cccn3C)C2=O)cc1 | 1.5%
CCOC(=O)c1c(NC(=O)C2COc3ccccc3O2)sc(C(C)=O)c1C (stereo not given) | -22.8%
Cc1cc(N)n2ncc(-c3cccc(Br)c3)c2n1 | ?
CCOC(=O)c1sc(NC(=O)CSc2nc3c(c(=O)n2-c2ccc(F)cc2)SCC3)c(C(=O)OCC)c1C | -5.9%

Next part:
SMILES | HPGD block
CCN1CCN(C(=S)Nc2ccc3nc(N4CCN(C)CC4)cc(C)c3c2)CC1 | -9.1%
CCOC(CNC(=O)c1ccc(N2CCc3ccccc32)c([N+](=O)[O-])c1)OCC | -19.4%
COc1ccc(Br)cc1/C=N/NC(=O)c1cc(OC)c(OC)c(OC)c1 | -17.5%
O=C(NCc1ccco1)c1cccc(S(=O)(=O)N2CCc3ccccc32)c1 | -8.3%
Cc1nc2cc(-c3ccccc3)nn2c(C)c1CCC(=O)NC(C)c1ccc2c(c1)OCCO2 (stereo not given) | -24.1%
CC(=O)/C(=N/Nc1ccccc1)Sc1nnc(CCc2ccccc2)n1-c1ccccc1 | -23.6%
Cc1ccc2ncnc(Nc3ccc(C)c(C)c3)c2c1 | -20.1%
COC(=O)C1=C(C(=O)OC)[C@@H]2Nc3ccccc3[C@@]23C[C@@H](C(=O)OC)N(C(=O)c2cccs2)C3=N1 | -1.7%
C=CCOC(=O)C(C#N)c1nc2ccccc2nc1N1CCN(Cc2ccccc2)CC1 (stereo not given) | -23.6%
Cc1ccccc1N1C(=O)C2ON(c3ccccc3)C(c3ccncc3)C2C1=O (stereo not given) | -7.6%
CC1=C(C(=O)N2CCCCCC2)C2(CCC(C)CC2)OC1=O (stereo not given) | -8.9%
CCCCCCCCCCCCCCCC(=O)NC(C)C(=O)O (stereo not given) | -2.6%
COc1cc2c(cc1OC)C(C)N(C(=O)c1cc3n(n1)C(C(F)(F)F)CC(c1ccco1)N3)CC2 (stereo not given) | -19.8%
CCOC(=O)c1sc2c(c1C)c(=O)c(C(=O)OCC)cn2CC | -25.8%
Cc1ccccc1NC(=O)C1CCN(c2cc(-c3ccccc3)nc3ncnn23)CC1 | ?
O=C1O/C(=C/c2ccccc2)c2ccccc21 | ?
CCOc1ccc2nc(NCCNC(=O)Nc3cccc(C)c3)c(C#N)cc2c1 | -14.7%
Nc1nnc(CCS(=O)(=O)c2cc(Cl)ccc2Cl)s1 | -20.5%
CCCCOc1cccc(OCCCC)c1C(=O)Nc1cc(C)on1 | -11.3%
CC1(C)CC(NC(=O)CCC2CCCC2)CC(C)(C)N1 | 2.9%
CCCCCCC1NC(C(=O)O)CS1 (stereo not given) | -9.8%
CCN(CC)S(=O)(=O)c1ccc2[nH]cc(C(=O)NCCCN3CCCCC3)c(=O)c2c1 | ?
Cc1cc(SCC(=O)Nc2cccc(S(=O)(=O)NC3=NCCCCC3)c2)c(C)cc1Br | -7.5%
COC(=O)c1ccc2c(c1)C(=O)/C(=C/c1ccc(O)cc1)O2 | -12.1%
CCOC(=O)c1[nH]c2c(c1-c1ccccc1)C(=O)CC(c1ccccc1)C2 (stereo not given) | -1.3%

Given as tab-separated lines: entries from further up
mol	HPGD block
CC1(C)CC(=O)C2=C(C1)OC(c1ccncc1)C(C#N)=C2N (stereo not given)	1.3%
OCc1cc(C(O)CNCCCCCCOCCCCc2ccccc2)ccc1O (stereo not given)	?
CC1CCc2sc3ncn4nc(C(=O)NCc5ccco5)nc4c3c2C1 (stereo not given)	-19.7%
O=C(CSc1nc2ccccc2s1)Nc1ccc(Cl)c(S(=O)(=O)N2CCOCC2)c1	-10.8%
CC(C)c1cc(C(F)(F)F)nc(NNc2nc(C(C)C)cc(C(F)(F)F)n2)n1	-4.7%
Cc1nc2c(-c3ccc(F)cc3)c(C)nn2c(C)c1CCC(=O)N1CCN(c2ccc(F)cc2)CC1	-11.4%

(list continues)
SMILES | HPGD block
Cc1cc(C)cc(N=C(NO)c2cccc([N+](=O)[O-])c2)c1 | -9.6%
CNc1cc(CSC)nc(SCc2ccc(Cl)cc2Cl)n1 | -30.1%
CCN(CC)c1ccc(C(=O)OCC(=O)c2ccco2)cc1 | -11.5%
Cc1[nH]nc2c1C1(CCN(C(=O)OCc3ccccc3)CC1)C(C#N)=C(N)O2 | -7.0%
Cc1ccc(OCC(=O)NC2CCCc3ccccc32)c(C)c1 (stereo not given) | -30.7%
Cc1noc(C)c1S(=O)(=O)N1CCC(C(=O)N2CCN(c3ccccc3Cl)CC2)CC1 | -6.2%
c1ccc(-c2nc(-c3cccc4ccccc34)c(Nc3ccc4ccccc4c3)o2)cc1 | -6.9%
CCOc1cc2c3c(c1)C(C)CC(C)(C)N3C(=O)C2=O (stereo not given) | -10.0%
Cc1ccc(-c2cc(C(=O)N/N=C/C=C/c3ccccc3)n[nH]2)o1 | -12.8%
O=C1/C(=C/c2ccc(F)c(F)c2)CSc2sccc21 | -11.4%
Cc1cc(NS(=O)(=O)c2ccc(NC(=O)C(c3ccccc3)c3ccccc3)cc2)no1 | 0.3%
O=C(Nc1nnc(C23CC4CC(CC(C4)C2)C3)s1)c1ccc(N2C(=O)CCC2=O)cc1 | -14.8%
CCN1C(=O)N[C@@H](c2ccccc2)[C@H](C(C)=O)[C@H]1C | -5.3%
NC(=O)COc1ccc(NC(=O)OCc2ccccc2)cc1 | -2.7%
CCOc1ccc2c(c1)nc(SCC(=O)c1ccc(Br)s1)n2C | ?
CCN(CC)CCCNc1nc2cc(OC)c(OC)cc2c2nc(-c3ccccc3)nn12 | -12.6%
Cn1c(CSc2ncccn2)nnc1SCC(=O)N1CCCc2ccccc21 | -10.7%
COc1ccc2nc(SCC(=O)Nc3cc(C)on3)[nH]c2c1 | -11.3%
CCn1c(C)nc2cc(C(=O)NNS(=O)(=O)c3ccccc3F)ccc21 | 0.9%
CC(C)OCCCNC(=O)c1sc(=S)n(C)c1N | 28.2µM*
COc1ccccc1NC(=O)C(=O)NNC(=O)c1ccco1 | -20.7%
Cc1ccc(-c2nnc(N3CCN(S(C)(=O)=O)CC3)c3ccccc23)cc1 | -13.7%
CC(OC(=O)c1ccc2c(c1)C(=O)N(Cc1ccncc1)C2=O)C(=O)Nc1cccc(Cl)c1Cl (stereo not given) | -26.9%
CC(C)(C)Nc1nc(Cl)nc(NC(C)(C)C)n1 | -9.7%
COc1ccc(S(C)(=O)=O)cc1S(C)(=O)=O | -7.0%

Entries shown so far containing a tert-butyl group (2):
SMILES | HPGD block
CC(C)(C)c1ccc(/C=C/C(=O)Nc2ccc3c(c2)OCCO3)cc1 | -15.0%
CC(C)(C)Nc1nc(Cl)nc(NC(C)(C)C)n1 | -9.7%

Continuation:
SMILES | HPGD block
O=C(Nc1cnc2ccccc2c1)c1ccco1 | -12.1%
OC(CN1CCN(c2ccccc2)CC1)c1ccc2c(c1)CCN2 (stereo not given) | -5.8%
CC(=O)N1CCC(N(C(=O)Nc2ccc(C)c(C)c2)C2CCCC2)CC1 | 0.1%
N#Cc1ccc(C(=O)Nc2ccn(-c3ccccc3)n2)cc1 | -17.5%
COC(=O)C1CCN(C(=O)/C=C/c2ccccc2)CC1 | -2.8%
Cc1ccccc1/C=N/Nc1ccnc2cc(Cl)ccc12 | -16.8%
Cc1ccc(-n2c(C)cc(/C=c3/sc4nc5ccccc5n4c3=O)c2C)cc1 | -14.6%
COc1ccc2c(CC(=O)OCC(=O)NC(=O)c3cccn3C)coc2c1 | -11.3%
Fc1ccccc1NC(=S)N1CCCCC1 | -11.7%
COc1cccc(CNc2nc3nc4c(c(=O)n3[nH]2)CCC4)c1 | -6.6%
O=S(=O)(c1ccc(F)cc1)N1CCC(O)(c2ccc3c(c2)OCO3)CC1 | -11.3%
COCc1cc(=O)[nH]c2cc(NC(=O)C(C)(C)CCl)c(C)cc12 | -22.4%
O=C(Nc1nnc(CSCc2ccc(Cl)cc2)s1)c1cccc([N+](=O)[O-])c1 | -17.4%
CCCCOC(=O)C(NC(=O)c1ccccc1)=C(C)C | -3.2%
CCN1CCc2c(sc3c2c(NCc2ccco2)nc2nnnn23)C1 | ?
Cc1ccc2nc(-c3ccc(S(=O)(=O)N4CCOCC4)cc3)cn2c1 | ?
Cc1ccc(C(=O)NCCCN2CCOCC2)cc1N1CCCC1=O | -9.8%
Cc1cc(C(=O)COC(=O)CN(C)S(=O)(=O)c2ccc(Cl)cc2)c(C)n1CC1CCCO1 (stereo not given) | -16.4%
CCOC(=O)C(NC(=O)c1cccc(Cl)c1)(Nc1nnc(C)s1)C(F)(F)F (stereo not given) | -11.2%
Cc1cc(=O)oc2c(C)c(OCC(=O)N(C)C)ccc12 | ?
CCCCOc1ccc(S(=O)(=O)NC(=O)NCc2ccc(OCCC)cc2)cc1 | 0.0%
CCC(O)OC(O)CC (stereo not given) | -3.5%&-0.8%
COC(=O)[C@H](Cc1ccccc1)NC(=O)N1CCC(C)CC1 | -4.4%
O=C1COc2ccc(C(=O)NCc3ccco3)cc2N1 | -3.7%
C=CCOC(=O)N[C@H](c1ccco1)C(C(C)=O)C(C)=O | -7.3%
CCNC(=O)CSc1ncnc2sccc12 | -16.9%
COC(=O)c1c(C)oc2ccc(N(C(=O)c3ccncc3)S(=O)(=O)c3ccc(C)cc3C)cc12 | -10.3%

A portion of the library (hit frequency here may not be typical).
